CSC inhib – cancer stem cell viability inhibitors, primary screen, luminescence. AID 2717, 2010. cancer stem cell-like cells viability. actives 1.1% (n = 300,000). inhibition, % at 7.5 µM;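 active means mean at 75% or more and at least half the replicates too; inconclusive means mean and replicates disagree; tested in HMLE shEcad cells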;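 further: 0% = median of negative and 100% = median of positive control wells; the first replicate is given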
PABP FP inh – PABP poly(A) RNA binding inhibitors, primary screen, biochemical, fluorescence polarization, uHTS. AID 2014, 2009. Polyadenylate-binding protein 1 (Homo sapiens), P11940. inhibition, % at 35 µM. actives 1% (n = 290,000);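 active means 50% or more with normal probe brightness, or confirmed in later tests; inconclusive means above 50% with abnormal brightness, or retests that disagree; inactive means below 50% or failed in later tests; about a fifth of its hits are not listed in these tables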;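 further: calls also rest on retests at 20 µM and on dose response follow-up; controls were probe without protein and protein plus probe with vehicle; some compounds called inactive have numbers as strong as hits; many hits fall short of the cut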
MT1-MMP act inh – blockers of MT1-MMP proenzyme processing, primary screen, HT1080 RFP-PRO-GFP cells, GFP/RFP fluorescence; actives 0.061% (n = 360,000); AID 651647, 2012; GFP/RFP ratio change, % at 20 µM; GFP/RFP ratio fluorescence, overnight; percent of plate control window, DMSO zero;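 active means GFP/RFP ratio change of at least 30% with cell ATP level not reduced by more than half and red fluorescence within 50% of control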; further: strong numbers were not always called active
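system = RFP-PRO-GFP reporter HT1080 cells | dosing = 20 µM single dose, 1% DMSO | timing = overnight cell settling, then overnight compound exposure, 37 °C, 5% CO2 | read-out basis = GFP/RFP fluorescence ratio | controls = DMSO and RFP-L50D-GFP cell wells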
eIF4H FP inh – human eIF4H binding inhibitors, primary screen, translation initiation inhibitor project, biochemical, uHTS, fluorescence polarization; Eukaryotic translation initiation factor 4H (Homo sapiens), Q15056; eIF4H fluorescence polarization binding assay; inhibition, % at 35 µM; actives 0.94% (n = 290,000);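 active means 50% or more with normal probe brightness, or confirmed in later tests; inconclusive means above 50% with abnormal brightness, or retests that disagree; inactive means below 50% or failed in later tests; about a fifth of its hits are not listed in these tables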;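 further: calls also rest on retests at 20 µM and on dose response follow-up; 0% = protein and probe with vehicle and 100% = probe without protein; strong numbers were not always called active; many hits fall short of the cut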
Env fusion inh – inhibitors of HIV-1 Env-driven cell-cell fusion, primary screen, HeLa-JRFL effector, CEM21 target cells, luciferase | inhibition, % at 12.3 µM | actives 1.1% (n = 360,000);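 active means mean replicate inhibition score of at least 50 and every replicate individually at or above 50; inconclusive means only one of the two criteria met; inactive means mean below 50 and not all replicates reaching 50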;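 further: 0% = plate neutral controls and 100% = maraviroc near 300 nM; one replicate is shown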
UUG fidelity – modulators of yeast start codon fidelity, primary screen, whole organism, S. cerevisiae, single point, plate reader. S. cerevisiae UUG-firefly luciferase reporter, luminescence/redox ratio. activity score, % at 18.7 µM. actives 0.13% (n = 350,000). AID 602363, 2012;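 active means replicate mean at a twofold rise or more, about +100% in these data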;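 further: firefly luciferase made from a UUG start codon reports start codon fidelity; reporter light over untreated wells divided by growth signal over untreated wells; some hits fall short of that in this replicate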
Rce1 inh – yeast Rce1p protease inhibitors, primary screen, biochemical, fluorescence, cell-free homogeneous; CAAX prenyl protease 2 (Saccharomyces cerevisiae (strain ATCC 204508 / S288c)), Q03530; yeast membranes, quenched prenylated peptide cleavage fluorescence; calls only; actives 0.27% (n = 290,000); AID 2563, 2010;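 active means fall in fluorescence gain of 50% or more versus controls, with final raw signal at or below 3038400; inconclusive means same 50% fall but final raw signal above 3038400; inactive means fall in fluorescence gain under 50%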;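 further: plate controls were neutral control wells for no effect and wells lacking membranes for full effect; tested at 10 µM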
Target sequence (Q03530 whole entry, looked up): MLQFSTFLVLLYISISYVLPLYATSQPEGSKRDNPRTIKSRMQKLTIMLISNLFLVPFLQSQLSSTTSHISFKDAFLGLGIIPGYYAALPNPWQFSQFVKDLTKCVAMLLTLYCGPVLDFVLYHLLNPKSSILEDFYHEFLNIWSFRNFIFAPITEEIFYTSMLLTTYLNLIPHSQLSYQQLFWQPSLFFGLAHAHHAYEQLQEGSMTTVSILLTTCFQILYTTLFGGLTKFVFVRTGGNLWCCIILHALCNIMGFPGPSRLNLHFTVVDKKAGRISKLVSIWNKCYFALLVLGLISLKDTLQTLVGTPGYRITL
MT1-MMP act inh RFP – second read-out of MT1-MMP act inh, no call of its own (marks repeat the call); RFP signal change, %; measured here: RFP expression control read;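 0 = vehicle wells; hits needed this value within 50% of zero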
Active calls of the source: *; i = inactive; ? = inconclusive; . = no result given.

The first 2 entries, to show the layout:
SMILES	CSC inhib	PABP FP inh	MT1-MMP act inh	MT1-MMP act inh RFP	eIF4H FP inh	Env fusion inh	UUG fidelity	Rce1 inh
CCOc1cc(C(=O)O/N=C(\N)c2ccccn2)cc(OCC)c1OCC	-7	-4	-8	-6	-4	-5	-8	.
COc1cc(/C=N/NC(=O)c2ccc3nc[nH]c3c2)ccc1O	-4	-8	0	1	-9	-1	.	i

The whole of this part, from the first entry:
SMILES	CSC inhib	PABP FP inh	MT1-MMP act inh	MT1-MMP act inh RFP	eIF4H FP inh	Env fusion inh	UUG fidelity	Rce1 inh
CCOc1cc(C(=O)O/N=C(\N)c2ccccn2)cc(OCC)c1OCC	-7	-4	-8	-6	-4	-5	-8	.
COc1cc(/C=N/NC(=O)c2ccc3nc[nH]c3c2)ccc1O	-4	-8	0	1	-9	-1	.	i
O=C(c1cc(F)c(F)cc1Cl)N1CCN(c2ncccn2)CC1	6	0	2	-1	-7	-9	-11	i
COc1ccc(OC)c(C(=O)c2ccc(C(=O)Nc3ccccc3)cc2)c1	5	-6	3	2	-10	17	-27	i
O=[N+]([O-])c1ccc(-c2nc(-c3ccncc3)no2)cc1	12	-1	1	3	8	-7	17	i
CCCCC(=O)Nc1cccc(NC(=S)NC(=O)Cc2ccccc2)c1	10	10	1	2	-10	7	-15	i
CNC(=O)NC(=O)C(NC1CCCc2ccccc21)c1ccccc1 (configuration not stated)	-2	12	-4	1	8	-10	-13	i
Cc1ccc2c(c1)C1(OCCCO1)C(=O)N2	-8	5	3	3	3	-5	-11	i
CCOc1ccc(NC(=O)c2cccc(-n3cnnn3)c2)cc1	-1	0	6	4	3	-19	-15	i
COc1cc(NC(=O)c2cccc(Cl)c2)c(OC)cc1NC(=O)CN1CCOCC1	-6	1	2	2	6	.	-16	i
O=C(O)c1sc2cccc(Cl)c2c1Cl	-1	5	-2	6	-4	-18	.	i
Cc1ccc(C)c(N2CCN(C(=O)Cc3ccc(-n4c(=O)[nH]c5ccsc5c4=O)cc3)CC2)c1	25	15	3	-1	5	25	0	i
COc1ccccc1NC(=O)/C(=C\c1cccnc1)NC(=O)c1ccccc1	-10	-16	3	2	-8	-1	-16	.
CC(Oc1ccc(Cl)cc1)C(=O)Nc1ccccc1N1CCOCC1 (configuration not stated)	0	.	-4	-2	.	22	-5	.
CC(=O)c1ccc(NC(=O)CSc2n[nH]c(-c3cccnc3)n2)cc1	1	1	-2	0	1	4	.	i
CCN(CC)S(=O)(=O)c1cccc(-c2nnc(SCC(=O)NC3CCCC3)n2N)c1	-7	-7	2	0	-5	-10	-6	i
COc1ccc(-c2noc(CCC(=O)NC3CCCC3)n2)cc1	7	3	3	1	-4	1	-8	i
COc1ccc(Oc2coc3cc(OC(=O)/C=C/c4ccc(F)cc4)ccc3c2=O)cc1	-6	7	2	9	-4	13	-1	i
Cc1onc(-c2ccccc2Cl)c1C(=O)Nc1nnc(-c2ccc(F)cc2)s1	15	-11	-8	-9	16	18	-5	i
N#CCCCSC1=C(C#N)C(c2ccccc2Cl)CC(=O)N1 (configuration not stated)	-8	-2	0	1	-8	-64	-12	i
O=C(NC1CCN(C(=S)Nc2ccc(Cl)cc2)CC1)C1CCCCC1	7	-2	1	-4	13	15	.	i
O=C(C[n+]1ccccc1)c1ccc(Cl)cc1	-3	.	3	7	.	23	-13	i
CC(=O)N1CCN(S(=O)(=O)c2cccc(C(=O)Nc3nc4c(s3)CCCC4)c2)CC1	2	2	-1	-5	-6	.	-3	i
COCCNC(=O)C1CCCN(C(=O)c2csc3ccccc23)CC1 (configuration not stated)	.	.	0	3	.	-8	-12	.
CCCCc1ncc(CN2CCC(n3nccc3NC(=O)c3ccccc3Cl)CC2)[nH]1	-6	6	-2	-2	0	-1	4	i
O=C(NN=C(Cc1ccccc1)Cc1ccccc1)c1ccccc1O	13	-11	3	4	1	6	-11	.
Cc1cc(Nc2cccc([N+](=O)[O-])c2)n2c(nc3ccccc32)c1C#N	83*	-3	-28	-35	-4	.	-3	i
OCC[C@H]1C[C@H](O)[C@@H](O)[C@]2(Cc3ccccc3O2)O1	14	.	1	7	.	.	-1	.
Cc1ccc2nc(NC(=O)c3ccc(Br)o3)sc2c1	1	0	2	-6	0	-158	-13	i
O=C(COC(=O)c1cc(-c2cccc(Br)c2)nc2ccccc12)NCC1CCCO1 (configuration not stated)	5	-3	-2	-1	-1	13	.	i
Cc1ccccc1NC(=S)N/N=C1\CC(C)(C)Oc2ccc(O)cc21	-11	-8	1	-7	-4	-11	.	i
CC1CCN(CCc2nc3cc(NS(=O)(=O)c4ccccc4)ccc3n2C)CC1	0	-1	-4	-9	-5	14	.	i
O=C(COC(=O)c1cc[n+]([O-])cc1)Nc1ccc(Cl)c(C(F)(F)F)c1	14	.	-3	-2	.	.	-10	.
CCN(CC)P(=O)(Nc1ccc(C)cc1Br)c1ccc(N(C)C)cc1NC(=O)c1ccco1 (configuration not stated)	67	9	-9	-6	4	32	.	i
COC(=O)c1ccc(NC(=S)N2CCN(C)CC2)cc1	-8	17	3	6	2	-6	.	i
CCOc1ccc(S(=O)(=O)Nc2cccc(C(=O)N(C)CC(=O)Nc3ccc(OC)cc3)c2)cc1	.	.	0	-2	.	1	-24	.
COc1ccccc1NC(=O)CN1CCC(c2nc3ccc(C)cc3[nH]2)CC1	-8	-3	5	4	-3	7	-16	i
Cc1[nH]c2ccccc2c1C1(O)C(=O)N(Cc2ccc3c(c2)OCO3)c2ccccc21 (configuration not stated)	.	11	-7	4	12	-25	6	i
Oc1cc(-c2ccccc2)c2ccccc2c1	8	-2	-1	2	4	-2	.	i
C=CCNc1cnn(CC(C)=O)c(=O)c1Br	-12	-2	1	3	-17	.	-14	i
COC(=O)/C(C#N)=C/c1c(N2CCN(c3ccc(OC)cc3)CC2)nc2c(C)cccn2c1=O	2	1	-7	-7	-10	34	-11	i
CCN(CC)c1ccc(C(=O)OCC(=O)N2CCCC2)cc1	4	-2	1	3	0	.	4	i
Cc1ccc(-n2cc(C(=O)c3ccc(N4CCN(C)CC4)cc3)nn2)cc1Cl	.	-3	-1	-2	-13	-21	-8	i
OCCC1CN(C2CCN(c3ccccc3)CC2)CCN1Cc1ccc(F)c(F)c1 (configuration not stated)	37	15	5	4	15	-3	-13	i
Cn1nnnc1SCc1nnc(-c2ccccc2Br)o1	-4	-7	7	6	4	.	-17	i
Cn1c(/C=C/c2cccc([N+](=O)[O-])c2)nc2ccccc2c1=O	-6	-8	-1	-7	2	0	.	i
COc1cccc(NC(=O)CN(C)S(=O)(=O)c2ccc3[nH]c(=O)oc3c2)c1	14	.	1	6	.	5	-3	i
COc1ccc(NC(=O)CCNS(=O)(=O)c2ccccc2F)cc1S(N)(=O)=O	-3	2	-1	3	9	12	-14	i
CC(=O)CSc1nnc(Cc2ccc([N+](=O)[O-])cc2)o1	-1	3	1	3	-3	.	-16	i
Cc1cc(C(=O)N(CCC#N)Cc2cccs2)no1	-11	-4	0	5	-4	6	.	i

More entries follow:
SMILES	CSC inhib	PABP FP inh	MT1-MMP act inh	MT1-MMP act inh RFP	eIF4H FP inh	Env fusion inh	UUG fidelity	Rce1 inh
CNC(=O)C[C@H]1C(=O)N(c2ccccc2)C[C@@H]1C	.	.	4	5	.	13	-17	.
CCc1ccc(NC(=O)c2cc(-c3ccco3)on2)cc1	47	0	0	6	-1	-8	.	i
CCCc1ccc(OCCNC(=O)C2CCCCC2)cc1	.	-5	-1	-1	1	4	.	i
Cc1cc(C)nc(SCCCNCc2ccccc2)n1	-4	8	-2	4	-7	0	-1	i
COc1ccc(CCNc2oc(COc3ccccc3Cl)nc2C#N)cc1OC	9	-2	-1	0	-9	-458	-4	i
Cc1nn(Cc2ccccc2Cl)c2sc(C(=O)Nc3nccs3)cc12	7	10	0	-3	-3	0	.	i
COCc1cc(=O)[nH]c(N2CCN(C(=O)c3ccco3)CC2)n1	-6	-4	0	1	2	-22	-15	i
Brc1ccc(CN2CCSCC2)cc1	-6	1	3	3	6	.	-15	i
C=CCn1c(SCCOC)nc2c1c(=O)[nH]c(=O)n2C	-4	-4	4	4	2	-17	0	i
CCOc1ccc(/C=N/NC(=O)C2CC2)cc1OC	-2	-2	-2	1	-9	.	-17	i
C=CCn1c(SCC(=O)/C(C#N)=C(\C)N)nnc1C1CCCCC1	-7	12	0	1	-4	.	-20	i
Cc1cc(C)cc(NC(=O)C(c2ccccc2)N2CCN(CC(=O)NC3CC3)CC2)c1 (configuration not stated)	.	.	3	3	.	11	5	.
C=CCN(C(=O)c1csnn1)C(C(=O)NCc1ccccc1)c1ccccc1F (configuration not stated)	-1	6	-3	-1	5	2	-1	i
O=C(NCCC(=O)N(CCc1ccccc1)Cc1ccccc1)c1ccc(Br)cc1	3	.	-7	-6	.	2	8	i
CCN(C(=O)CCN1C(=O)/C(=C/c2ccccc2)SC1=S)C1CCS(=O)(=O)C1 (configuration not stated)	28	3	1	-2	-15	1	-19	i
Cc1ccc(CNc2ncnc3c2cnn3-c2ccccc2)cc1	-6	2	2	1	-2	35	-11	i
COC(=O)CSc1nnc(CNC(=O)c2ccc(OC)cc2OC)n1C	8	2	-4	1	0	-57	-7	i
CCC1=[N+](CC(=O)c2ccc(C)cc2)CCn2c(C)ccc21	69	-1	2	-2	4	-3	.	i
O=C(c1cc(-c2ccccc2)nn1-c1ccccc1)N1CCN(S(=O)(=O)c2c(F)cccc2F)CC1	-16	.	1	-8	.	7	-18	i
CC(C)Cn1c2c(c(O)c(C(=O)Nc3ccc(F)cc3)c1=O)CCCC2	45	-1	-3	-2	-5	.	-16	i
Cc1ccc(OCC(O)Cn2nc(C)cc2C)cc1 (configuration not stated)	-17	-15	3	0	0	-6	.	i
CCC(CCc1ccccn1)C(=O)c1ccccc1 (configuration not stated)	.	.	2	1	.	-13	-9	.
CC(NC(=O)COC(=O)c1ccc(N2CCCC2=O)cc1)c1ccc(F)cc1 (configuration not stated)	-9	.	3	3	.	.	1	.
CCCN(CCC)C(=S)NC1CC2C=CC1C2 (configuration not stated)	-19	6	-1	1	-8	-3	.	i
O=C(c1cccc2ccccc12)N1CCN=C1SCc1ccc([N+](=O)[O-])cc1	-14	0	1	-1	-7	36	-14	i
Cc1sc2nc(C3CC3)nc(NCCNS(=O)(=O)c3ccccc3)c2c1C	5	1	9	-8	-5	.	-3	i
Cc1ccc2c(CN3CCOCC3)cc(=O)oc2c1	-2	-14	.	.	-10	1	.	i
O=C(NCC(=O)N(CC1CCCO1)C(C(=O)NC1CCCC1)c1cccnc1)c1ccco1 (configuration not stated)	.	11	0	4	-3	.	12	i
CCOc1cc(NC(=O)c2ccccn2)c(OCC)cc1NC(=O)c1ccccc1	?	-4	3	6	4	9	.	i
